Bioassay records from PubChem BioAssay.
LANA-H2A inh – blocks KSHV LANA binding to histone H2A/H2B; cell-free LANA-H2A/H2B peptide, fluorescence polarization; inhibition, % (concentration not given with the values); 320,000 compounds, 0.6% hits; AID 2629; in the data active means inhibition mostly above about 10%, no sharp cut-off; inactive means mostly below about 6.7%;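 further: stock transfer was 7.5 nL into about 10 µL; 0% = median of vehicle wells and 100% = median of positive control wells; one replicate is shown; the record names a cut of 25% in any replicate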
Beta2AR agonist – agonists of human beta-2 adrenergic receptor inducing internalization. Am2.2-beta2AR cells, FAP receptor internalization, flow cytometry; reference of the scale not given here. P07550. 340,000 compounds, 0.43% hits. response, % (no concentration beside the values);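 active means response above a set limit, near 3 SD of response in nonfluorescent compounds, cut at about 42% in these data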;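 further: stock transfer was 100 nL into about 11 µL; a reference agonist was the positive control; negative values mostly stem from fluorescent compounds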
Target sequence (P07550 whole entry, looked up): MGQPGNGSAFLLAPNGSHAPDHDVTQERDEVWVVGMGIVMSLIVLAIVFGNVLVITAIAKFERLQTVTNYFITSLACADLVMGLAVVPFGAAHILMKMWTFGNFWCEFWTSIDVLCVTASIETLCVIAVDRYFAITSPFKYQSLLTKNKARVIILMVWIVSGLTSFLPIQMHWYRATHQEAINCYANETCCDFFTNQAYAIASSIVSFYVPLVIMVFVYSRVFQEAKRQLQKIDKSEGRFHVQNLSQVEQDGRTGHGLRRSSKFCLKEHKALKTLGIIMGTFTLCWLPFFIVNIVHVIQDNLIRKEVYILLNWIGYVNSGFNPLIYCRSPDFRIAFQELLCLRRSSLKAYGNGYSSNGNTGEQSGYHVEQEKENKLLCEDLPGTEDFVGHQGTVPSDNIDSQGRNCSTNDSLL
RanGTP-Imp inh – disruptors of Ran-importin-beta complex formation – biochemical, FRET, CFP-Ran, YFP-importin-beta, homogeneous, primary screen; cell-free CFP-Ran/YFP-importin-beta FRET ratio; inhibition, % (concentration not given with the values); 300,000 compounds, 1.1% hits; AID 2216;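 active means most replicates above 15%; inconclusive means exactly half above 15%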;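 further: 0% = DMSO wells and 100% = Ran loaded with GDP instead of GTP; wells of about 40 µL received 100 nL stock; the first replicate is given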
ALR H2O2 inh – human ALR oxidase inhibition via reduced H2O2. P55789. purified ALR, DTT oxidation, H2O2 HRP-luminol luminescence. inhibition, % (no concentration beside the values). 290,000 compounds, 3.8% hits;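 active means mean and each replicate at 75% or more; inconclusive means only one of the two met; inactive means neither met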;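 further: stock transfer was 7.5 nL into about 7.5 µL; 0% = neutral wells and 100% = wells with inactivated enzyme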
Target sequence (P55789 whole entry, looked up): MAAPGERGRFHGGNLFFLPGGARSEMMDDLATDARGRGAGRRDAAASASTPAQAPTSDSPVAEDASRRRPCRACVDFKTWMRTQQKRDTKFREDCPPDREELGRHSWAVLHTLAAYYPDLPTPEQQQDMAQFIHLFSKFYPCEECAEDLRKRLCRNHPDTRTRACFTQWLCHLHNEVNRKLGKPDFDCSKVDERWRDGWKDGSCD
HNF4A DNA FP – change in binding of human HNF4 alpha to DNA | P41235 | HNF4a-FITC DNA binding, fluorescence polarization, 1 h | activity change, % at 10 µM | 360,000 compounds, 0.3% hits | AID 1224865; in the data active means activity change above about 30%, passing the limit was not always enough;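 further: controls were the assay level and a saturating level of protein; the project sought stronger binding though the title names inhibitors; some compounds called inactive have numbers as strong as hits; positive values seem to mean higher polarization but the record does not say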
Calb FLC – C. albicans growth modulation with fluconazole; AID 1979; growth inhibition, % (test concentration not listed); 300,000 compounds, 0.57% hits; C. albicans CaCi-2 (fluconazole-resistant clinical isolate) + fluconazole, Alamar Blue growth, 48 h;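 active means most replicates above 75%; inconclusive means exactly half above 75%; inactive means most below 75%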;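 further: all wells also contain fluconazole at 8 µg/ml as a sub-toxic cotreatment; 0% = median of DMSO wells and 100% = median of geldanamycin control wells; wells of about 8 µL received 7.5 nL stock; the first replicate is given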
Vif TR-FRET – HIV-1 Vif–A3G interaction blockers – biochemical, TR-FRET, GST-Vif 1-94, biotin-A3G peptide, dose response retest, primary screen (AID 1117319) | TR-FRET GST-Vif / biotin-A3G peptide binding; higher % means a stronger effect; test concentration not given here; strong numbers were not always called active | 260,000 compounds, 0.57% hits | inhibition, %; hits with a dose series show IC50 in µM;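 active means above the screen mean plus three standard deviations and confirmed in dose response; inconclusive means results disagree or hit not tested in dose response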;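 further: Vif residues 1-94 fused to GST binding biotinylated APOBEC3G peptide 110-148; 0% = full assay without inhibitor and 100% = GST in place of GST-Vif; retest series ran down from 100 µM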
Active calls of the source: *; u = inconclusive; x = no result given.

SMILES | LANA-H2A inh | Beta2AR agonist | RanGTP-Imp inh | ALR H2O2 inh | HNF4A DNA FP | Calb FLC | Vif TR-FRET
Cc1cccc(C)c1OCc1cc(C(=O)N2CCN(c3ccc(F)cc3)CC2)no1 | x | 2 | 1.3 | -12 | 3.8 | 8 | x
O=C1C2CC=CCC2C(=O)N1Nc1ccccc1 (stereo not given) | -6.6 | 8 | -2.4 | -9 | -4.3 | -13 | 1%
COc1cc(C)c(NC(=O)c2cccc(S(=O)(=O)N3CCCC3)c2)cc1OC | -5.2 | 1 | x | -16 | 0.3 | x | 9%
COc1ccc(C(=O)n2c(N)nc3ccccc32)cc1OC | 8.1 | -4 | 0.9 | 5 | 0.9 | -3 | x
CC1=C(C(=O)OC(C)C)C(c2c(O)ccc3ccccc23)NC(=O)N1 (stereo not given) | -4.4 | -2 | 2.6 | -14 | 1.2 | 7 | -4%
COc1ccc(/C=C2\SC(N)=NC2=O)cc1 | -0.8 | 9 | -0.8 | -3 | 1.4 | 5 | x
Cc1noc(C)c1COC(=O)c1ccc2c(c1)OCCO2 | 6.0 | -1 | x | -5 | -0.7 | x | u
C=CCN(C(=O)c1ccc2snnc2c1)c1ccccc1 | -5.4 | 3 | 2.6 | 2 | -0.2 | 6 | 2%
Cc1cccn(Cc2c(F)cccc2Cl)c1=O | -1.7 | 0 | 3.4 | 1 | -0.2 | 0 | 12%
CC(C)C(NS(=O)(=O)c1ccccc1)C(=O)N1CCCCCC1 (stereo not given) | 6.3 | 1 | 3.3 | 10 | 5.7 | 16 | x
CCC(C)(C)C1CCC2(CC1)NC(=O)N(CC(=O)Nc1nc(-c3ccc(C)cc3)cs1)C2=O (stereo not given) | -1.9 | -2 | 2.5 | -4 | 1.9 | 2 | -2%
Cc1cc2cc3c(cc2nc1SCC(=O)N1c2ccccc2CC1C)OCO3 (stereo not given) | -6.0 | -4 | -1.5 | -7 | 2.9 | 5 | -20%
COc1ccccc1-n1c(-c2cc(-c3ccc(F)cc3)n[nH]2)n[nH]c1=S | 1.0 | 3 | 1.3 | 77* | 2.6 | u | 1%
Cc1ccc(N=CNc2ccc(C)cc2C)c(C)c1 | -5.4 | 0 | 0.1 | -10 | 6.3 | -1 | 4%
COc1ccc(NS(=O)(=O)c2cccc(C(=O)NCc3cccnc3)c2)cc1 | -0.1 | -1 | 2.2 | -2 | 3.4 | -9 | x
CC(C)C(NC(=O)c1ccco1)C(=O)OCC(=O)Nc1ccc(C(N)=O)cc1 (stereo not given) | 1.4 | 9 | 1.6 | 8 | 2.9 | -16 | u
Cc1cc(C)c(C)c(C(=O)C2OC(=O)C(C)(C)C(=O)C2(C)C)c1C (stereo not given) | 1.0 | 3 | 1.8 | -12 | -2.4 | 3 | 2%
CCOC(=O)CSc1nnc(C)n1N | 3.4 | -7 | 4.2 | -3 | -0.5 | 1 | 6%
CCOC(=O)c1c(C)nc2sc3c(=O)n(-c4ccc(C(C)=O)cc4)nnc3c2c1-c1ccc(OC)cc1 | 1.3 | 14 | -2.5 | -9 | 3.5 | -1 | u
O=C(c1cc(-c2ccco2)nc2ccccc12)N(Cc1nnc(-c2ccc(Cl)cc2)o1)C1CC1 | -2.3 | 5 | -2.6 | 2 | -6.1 | 3 | 9%
COc1ccc(-c2nnc(CSc3nc4ccccc4c(=O)n3CC(C)C)o2)cc1OC | 3.3 | -4 | 0.8 | -16 | 3.1 | 27 | u
O=C(Cc1ccc(Cl)cc1)NC1CCCCCC1 | 3.0 | -4 | -0.1 | x | -1.4 | -13 | x
Cc1cc(C)cc(NC(=S)NCCSc2ccc(Cl)cc2)c1 | -1.2 | -4 | 0.8 | -6 | -0.9 | -22 | 2%
CC(=O)OC(COc1ccccc1)Cn1cnc2ccccc21 (stereo not given) | 0.3 | 3 | 1.7 | x | 1.8 | -12 | 6%
CCC(=O)Nc1nonc1-c1nc2ccccc2n1Cc1cccc2ccccc12 | -0.2 | 7 | 1.7 | -12 | 3.2 | 0 | -33%
O=C(O)CCn1c(-c2ccccc2)cc2c1CCCC2=O | 2.7 | 3 | -2.1 | -18 | 0.1 | -10 | u
O=C(c1ccc(Br)cc1)c1cc([N+](=O)[O-])ccc1N1CCOCC1 | -0.5 | 9 | 4.1 | -14 | 1.8 | u | -12%
Cc1nnc(C)c2c(C)n(C(c3ccccc3)c3ccccc3)c(C)c12 | 0.9 | 7 | u | -10 | 2.5 | -3 | 10%
Cc1ccc(NC(=O)C2(N3CCC3=O)CCCCC2)cc1 | -0.3 | -9 | -4.8 | -6 | 0.1 | 11 | -4%
COC(=O)C(CC(=O)c1ccccc1)CC(=O)c1ccccc1 | -1.6 | 2 | 10 | -2 | 1.6 | 13 | -13%
COc1ccc(CC(=O)N2CCC(n3nccc3NC(=O)C3CC3)CC2)cc1 | 1.9 | 6 | -2.1 | 6 | 1.6 | -1 | 6%
CCOC(=O)C1=C(N)OC2=C(C(=O)CCC2)C1c1ccccc1OC (stereo not given) | 2.0 | 6 | 2.2 | -13 | -0.5 | u | 11%
O=C(CN1CCN(Cc2ccc(F)cc2)CC1)NCc1ccccc1 | -3.1 | 4 | -8.5 | -1 | 4.1 | -5 | x
O=C(CNC1CCCCCC1)Nc1ccc(N2CCCC2)cc1 | -1.4 | x | 4.7 | 94* | x | -3 | 17%
COc1cc(CC(=O)NCc2ccccn2)cc(OC)c1OC | x | -1 | 0.8 | x | 0.7 | -1 | 4%
Cc1cc(C(=O)OCC(=O)Nc2ccccc2C#N)c(C)o1 | x | 0 | x | x | 1.2 | x | -2%
CC(C)(C)C(=O)CSc1ncccn1 | -3.7 | 2 | 5.4 | 43 | -2.1 | -6 | -2%
O=C(NC(=S)NNC(=O)c1ccco1)c1ccc(F)cc1 | -2.5 | 1 | 10.0 | u | 3.4 | -5 | x
CNC(=O)c1ccc(Nc2nc(-c3ccccc3)nc3ccccc23)cc1 | 0.4 | 14 | -1.4 | -7 | 0.1 | -1 | -9%
NC(=O)CCn1c(C(=O)c2cc(Cl)c(N)c(Cl)c2)c2ccccc2[n+]1[O-] | 6.0 | 4 | -0.4 | 29 | -3.2 | 1 | x
CC(NC(=O)c1ccccc1NC(=O)CN1CCc2ccccc2C1)c1ccccc1 (stereo not given) | 1.3 | 21 | 4.2 | -1 | 0.6 | 22 | x
O=S(=O)(NCC1CCCO1)c1cccc2nsnc12 (stereo not given) | 1.2 | -2 | -1.7 | -4 | 1.5 | 2 | 1%
COc1ccccc1/C=C1\SC(=S)N(CCC(=O)NC2=NCCS2)C1=O | 2.4 | 22 | 0.4 | -4 | 1.4 | -6 | x
Cc1ccc(S(=O)(=O)N(CC(=O)O)Cc2ccccc2F)cc1 | 3.3 | 15 | -1.1 | -1 | -1.0 | 6 | -3%
Cc1cc(OCC(=O)O/N=C(\N)c2ccccc2)ccc1Br | 2.9 | 2 | 1.7 | -1 | 0.1 | -11 | x
CC(C)NC(=S)N/N=C1\CCCc2ccccc21 | -6.6 | -2 | u | -3 | 3.0 | -11 | 33%
C/C(=N\NC(=O)c1cc2c(s1)CCC(C)C2)c1ccncc1 (stereo not given) | 0.1 | -5 | 5.0 | -6 | -1.0 | 12 | 0%
CCOC(=O)Cn1c(=O)oc2cc(S(=O)(=O)Nc3cc(OCC)ccc3OCC)ccc21 | -0.2 | 2 | x | x | 0.9 | x | 2%
CN1CCN(S(=O)(=O)c2ccc(Oc3cccc(C(F)(F)F)c3)nc2)CC1 | 4.9 | 3 | -0.7 | -1 | 1.4 | 7 | x
CC(=O)Nc1ccc(S(=O)(=O)N[C@@H](C)C(=O)OCC(=O)NC2CCCC2)cc1 | 0.6 | -2 | x | 1 | 1.4 | x | -4%
CCSc1nc(-c2ccccc2)cc(=O)[nH]1 | 0.5 | 4 | x | 3 | 0.9 | x | x
CCOC(=O)[C@@H]1[C@H]2COc3cc(OC)ccc3[C@@H]2N2C(=O)N(c3cccc(Cl)c3)C(=O)[C@@]12C | 0.5 | 1 | -2.1 | 2 | -1.9 | 6 | x
CCNS(=O)(=O)c1ccc(CCC(=O)Nc2ccc3c(c2)OCO3)cc1 | 1.3 | 13 | -1.3 | -7 | 0.0 | -9 | x
O=C(CSc1nncn1-c1ccccc1)Nc1cc(F)ccc1F | 0.2 | -14 | 6.9 | x | 1.7 | 1 | 1%
Cc1cccn2c(=O)c3cc(C(=O)N4CCOCC4)n(C)c3nc12 | -3.1 | 1 | 3.8 | -5 | 0.2 | 1 | 0%
COc1ccc(OCC(=O)OCC(=O)Nc2ccc(S(=O)(=O)N3CCCCC3)cc2)cc1 | 1.9 | 2 | 0.3 | -11 | 0.2 | 0 | 2%
Cc1ccc(C)n1-c1cc([N+](=O)[O-])ccc1-n1ccnc1 | -0.8 | 0 | 0.8 | -3 | -5.2 | -6 | x
O=C(NC(=O)N1CCCCCC1)c1ccc(Cl)cc1 | -0.4 | 5 | -1.2 | 9 | 1.0 | -3 | -11%
O=C(C1CCN(S(=O)(=O)c2ccccc2)CC1)N1CCN(Cc2ccc3c(c2)OCO3)CC1 | -1.8 | 4 | -3.6 | -2 | -0.2 | -13 | x
CCOc1cc(C#N)c(NC(=O)c2cccnc2)cc1OCC | -3.1 | -4 | -0.9 | -2 | -0.2 | 2 | 1%

(next part)
SMILES | LANA-H2A inh | Beta2AR agonist | RanGTP-Imp inh | ALR H2O2 inh | HNF4A DNA FP | Calb FLC | Vif TR-FRET
O=C(Nc1ccccc1C(=O)OCc1nnc(-c2ccccc2)o1)c1ccco1 | 2.4 | -12 | 1.2 | 37 | 2.2 | -11 | -2%
CCOc1ccc(Nc2ncnc(N)n2)cc1 | -9.4 | -4 | 7.2 | -2 | -3.8 | 6 | -2%
Cc1ccc2cccc(OCC(=O)NCCC3=CCCCC3)c2n1 | -3.3 | 0 | x | -3 | 0.6 | x | x
O=C(COC(=O)c1ccc(Cl)nc1)NC(=O)c1ccc(OC(F)F)cc1 | 0.8 | -4 | -1.1 | 3 | -1.7 | 2 | 1%
COc1ccc(-n2nc(C(=O)NCC(=O)N3CCN(Cc4ccc5c(c4)OCO5)CC3)c3ccccc3c2=O)cc1OC | -3.4 | -1 | -2.0 | 3 | 6.5 | 8 | 12%
O=C(COC(=O)C1=COCCO1)Nc1cc(S(=O)(=O)N2CCCCC2)ccc1Cl | 3.5 | -3 | 4.0 | x | -0.2 | 22 | 16%
Cc1ccc(-c2csc(N/N=C/C=C/c3ccccc3)n2)cc1 | -0.8 | -4 | 3.6 | -5 | 6.7 | -10 | 17%
CCCOc1ccc(N2C(=O)CC(NCc3ccc(S(N)(=O)=O)cc3)C2=O)cc1 (stereo not given) | -0.7 | -2 | 3.0 | -5 | 2.5 | 6 | x
COc1ccccc1N1CCN(/N=C/c2cc([N+](=O)[O-])ccc2Cl)CC1 | -5.7 | 2 | 5.1 | -3 | -3.5 | 29 | -4%
Cc1cc(Cl)cc(Br)c1OCCCNCC(C)O (stereo not given) | 1.7 | 4 | 5.4 | -1 | -4.7 | -1 | x
CCOC(=O)Cc1nnc(NC(=O)C(CC)Sc2nc(C)cc(C)n2)s1 (stereo not given) | -2.1 | -11 | 2.5 | -29 | -0.1 | -3 | -1%
CC1CCN=C(N)S1 (stereo not given) | 1.7 | -4 | -3.1 | -15 | 1.4 | x | x
C=CCc1cccc([C@@H]2[C@@H](C)CC[C@H]3C(=O)N4[C@@H](c5cc(OC)c(OC)c(OC)c5)c5[nH]c6ccccc6c5C[C@H]4C(=O)N23)c1 | 7.8 | x | -1.7 | x | x | 16 | x
